Compound activity deposited in PubChem by National Center for Advancing Translational Sciences (NCATS).
A488 autofl – qHTS Assay for Spectroscopic Profiling in A488 Spectral Region; compound autofluorescence, A488 spectral region, dye equivalency; stronger effect = higher value; max dye equivalency, M; 59,000 compounds, 0.1% hits; AID 591, 2007; active = above 10 nM dye equivalent; inconclusive = 1 to 10 nM; inactive = 1 nM or less; about half of its hits are not listed in these tables;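 note: highest value over a series up to 38 µM; compound alone in buffer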
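Autofluorescence read at ex 480/em 540 nm after 15 min RT in 100 mM Tris pH 8.0; compound signal normalized to A488 standard series on each plate, reported as dye-equivalent concentration at each test concentration.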
TSHR agonist – qHTS Assay for Agonists of the Thyroid Stimulating Hormone Receptor. Thyrotropin receptor (Homo sapiens), P16473. HEK293-CNG-TSHR cells (CNG channel as cAMP sensor), membrane potential dye, cAMP. Potency, µM (doses to about 57.1 µM), for the others: top-dose activation, usual class: activators. 73,000 compounds, 0.48% hits. AID 926, 2007; active = well fitted activation curve of enough size with the parental cells flat; inconclusive = any curve in the parental cells; inactive = parental cells flat and receptor cells flat or falling; note: potency is the fitted concentration of half-maximal effect; % of control where 0% means no effect; weak receptor curves with flat parental cells got no call and are not listed
Target sequence (P16473 whole entry, looked up): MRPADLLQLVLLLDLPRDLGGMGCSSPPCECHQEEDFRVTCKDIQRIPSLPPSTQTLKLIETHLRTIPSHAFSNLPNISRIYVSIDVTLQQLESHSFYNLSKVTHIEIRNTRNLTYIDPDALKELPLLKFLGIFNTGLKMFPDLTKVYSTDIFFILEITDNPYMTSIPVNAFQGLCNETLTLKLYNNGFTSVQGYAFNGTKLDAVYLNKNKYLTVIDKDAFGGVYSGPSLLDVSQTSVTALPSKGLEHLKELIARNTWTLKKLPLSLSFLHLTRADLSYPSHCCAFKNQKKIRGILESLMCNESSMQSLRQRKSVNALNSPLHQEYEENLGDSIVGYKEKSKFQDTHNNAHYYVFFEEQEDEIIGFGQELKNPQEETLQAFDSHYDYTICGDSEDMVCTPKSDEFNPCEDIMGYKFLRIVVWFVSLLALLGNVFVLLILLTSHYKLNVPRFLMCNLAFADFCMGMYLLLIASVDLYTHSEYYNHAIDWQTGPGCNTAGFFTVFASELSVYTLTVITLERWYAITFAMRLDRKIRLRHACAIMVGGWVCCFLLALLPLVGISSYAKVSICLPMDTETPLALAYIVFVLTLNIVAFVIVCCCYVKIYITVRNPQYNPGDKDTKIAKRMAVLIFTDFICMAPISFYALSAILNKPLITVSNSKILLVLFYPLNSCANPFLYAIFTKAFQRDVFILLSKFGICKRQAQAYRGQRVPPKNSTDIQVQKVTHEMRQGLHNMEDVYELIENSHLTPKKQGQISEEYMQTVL
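HEK 293 cells stably expressing TSHR and a cAMP-gated CNG channel; parental CNG-only cells as counterscreen. Cells preloaded 60 min with membrane potential dye plus 100 uM RO 20-1724, then compound 30 min; fluorescence read at 590 nm.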
AID923 – qHTS Assay for Allosteric/Competitive Inhibitors of Caspase-1: Spectroscopic Profiling in AFC Spectral Region | compound fluorescence, AFC spectral region (405/520 nm); almost no hit is shown here | Potency, µM (series often up to 57.5 µM), inactives show at the highest dose fluorescence increase, hits mostly activators | 75,000 compounds, 1.1% hits | AID 923, 2007; active = well fitted activation curve with a large enough effect; inconclusive = small, poorly fitted or top-dose-only effect;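 note: potency is the fitted concentration of half-maximal effect; 0% is about no effect; scaled to a free AFC standard on each plate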
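Compound autofluorescence profiled at 405 nm ex/520 nm em during kinetic caspase 1 run (50 nM enzyme, 5 uM Ac-WEHD-AFC, HEPES pH 7.5, 10 mM DTT). Titration up to 57 uM; baseline from regression intercept, normalized to AFC standard curve.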
A647 autofl – qHTS Assay for Spectroscopic Profiling in A647 Spectral Region. Compound fluorescence, A647 channel (570/671 nm), Tris buffer. max dye-equivalent concentration, M. 59,000 tested, under 10 active; active means above 1 µM dye equivalent; inconclusive means 0.1 to 1 µM; inactive means 0.1 µM or less;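 note: values scaled relative to a standard on each plate; highest value over a series up to 38 µM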
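Compound fluorescence was measured in 100 mM Tris buffer, pH 8.0, after 15 min at room temperature, using 570 nm excitation and 671 nm emission filters. Signal was normalized to a per-plate Alexa 647 standard curve and expressed as dye-equivalent concentration at each compound concentration.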
Resorufin fluor – qHTS Assay for Spectroscopic Profiling in Resorufin Spectral Region | Compound fluorescence, resorufin region 547/598 nm, buffer; stronger effect = higher value | max dye-equivalent concentration, M | 59,000 compounds, 0.04% hits; active = above 10 nM dye equivalent; inconclusive = 1 to 10 nM; inactive = 1 nM or less; a few of its hits are not listed in these tables; note: highest value over a series up to 38 µM
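Compounds in 100 mM Tris, pH 8.0, incubated 15 min at room temperature, then fluorescence read at 547 nm excitation/598 nm emission. Signal converted to dye-equivalent concentration via an on-plate six-point resorufin standard curve, per compound concentration.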
* = called active by the depositor; i = inactive; ? = inconclusive; / = no result given; [ ] = another dose, or the depositor's remark. This is a subset (hit frequency here may not be typical).

Results follow in this order: A488 autofl | TSHR agonist | AID923 | A647 autofl | Resorufin fluor
O=S(=O)(c1ccc(Cl)cc1)c1ccccn1
→ i | -2%[11.4 µM] | -1.0% | 3.5e-08 | i
C=CCOC(=O)C1=C(C)NC(C)=C(C(=O)OCC=C)C1c1ccc(O)cc1
→ / | -13% | 4.6% | / | /
O=c1[nH]c(SCc2ccccc2Cl)nc2c1cnn2-c1ccccc1
→ / | 9% | 1.3% | / | /
COc1ccc(NC(=O)C(F)(OC)C(F)(F)F)c(OC)c1 (stereo not drawn)
→ i | ? | -0.2% | 4.8e-09 | i
O=C1NCCN1Cc1cccc(Cl)c1
→ i | 11% | -0.3% | 5.2e-09 | i
COCCN(CC(=O)Nc1cccc(C)c1)S(=O)(=O)c1ccc(S(=O)(=O)N2CCCC2)cc1
→ i | 2% | 0.4% | 1.3e-08 | i
N#Cc1c(NC(=O)c2ccc(Cn3cc(Br)cn3)o2)sc2c1CCCCCC2
→ i | 1% | 3.1% | 2.3e-08 | i
Cc1nnc2n(-c3ccc(Cl)cc3)c(=O)c3c4c(sc3n12)CN(C)CC4
→ / | ? | 0.7% | / | /
CC(=O)c1c(C)nn(C(=O)c2cccs2)c1C
→ / | 15% | -3.8% | / | /
Cc1c(Cl)ccc2c1NC(=O)[C@]21[C@@H]2C(=O)N(Cc3ccccc3)C(=O)[C@@H]2[C@@H]2CCCN21
→ i | -7% | 1.9% | 3.1e-09 | i
Cc1cc(C)n(S(=O)(=O)c2cc(Cl)ccc2Cl)n1
→ i | 15% | -2.1% | 5.5e-08 | i
CC(C)CN(C(=O)COC(=O)CCc1c[nH]c2ccccc12)C1CCS(=O)(=O)C1 (stereo not drawn)
→ i | -2% | 1.2% | 9e-09 | i
CC(C)N1CC=C2C(C#N)=C(N)C(C#N)(C#N)C(c3ccccc3)C2C1 (stereo not drawn)
→ ? | / | / | 5.5e-08 | i
CCc1c(C)c(C#N)c2nc3ccccc3n2c1Nc1c(C)n(C)n(-c2ccccc2)c1=O
→ i | -4% | 8.1% | 1.7e-08 | i
CC(C)CCNC(=O)CN(C(=O)Cn1nnc(-c2ccc(F)cc2)n1)C1CCCC1
→ i | 9% | 0.8% | 5.6e-09 | i
Cc1nccn1-c1ncnc2sc3c(c12)CCCC3
→ / | 6%[11.4 µM] | -0.7% | / | /
Cc1ccc2cc(C)c(N3CCN(c4ccccn4)CC3)nc2c1
→ i | / | 2.0% | 7.2e-09 | i
CCn1c(SCC(=O)Nc2ccc3c(c2)OCCO3)nnc1-c1ccccn1
→ i | 21% | -0.7% | 5.2e-09 | i
Cc1oc(-c2ccccc2F)nc1CS(=O)(=O)CC(=O)N1CCCCCC1
→ / | 8% | 2.0% | / | /
Cc1ccc(SCN2CCCCC2)cc1 (tested in a mixture with another compound)
→ i | -3%[11.4 µM] | 0.3%[11.5 µM] | 5.9e-08 | i
CC(NCCc1ccc(O)cc1)C(O)c1ccc(O)cc1 (stereo not drawn)
→ i | / | -2.8% | 1e-09 | i
CSc1nnc(-c2ccccc2)c(=O)[nH]1
→ i | 5% | 0.8% | 1.2e-08 | i
C=CCn1c(SCC(=O)NCc2ccc3c(c2)OCO3)nnc1C1CCCCC1
→ i | ? | 1.1% | 1e-09 | i
O=C(c1cnn2c(C(F)F)cc(-c3ccccc3)nc12)N1CCN2CCCC2C1 (stereo not drawn)
→ i | ? | 3.8% | 3.9e-09 | i
Cc1cc(C)c(C#N)c(N2CCCC(C(N)=O)C2)n1 (stereo not drawn)
→ i | 8% | 0.9% | 1.7e-09 | i
O=C(CNS(=O)(=O)c1ccc(Br)s1)N1CCN(c2ncccn2)CC1
→ i | 4% | 0.1% | 1.8e-08 | i
O=C(CCN1CCCC1Cc1ccccc1)c1ccc2c(c1)OCCO2 (stereo not drawn)
→ i | / | / | 9.5e-08 | i
O=C(Nc1ccccc1)N1CCC2(CCNCC2)CC1
→ i | -3% | 4.8% | 2e-08 | i
Cc1cc(C)c(NC(=O)CN2C(=O)NC3(CCCCC3)C2=O)c(Cl)c1
→ i | -2% | 0.2% | 2.4e-08 | i
CCOC(=O)c1c(NCc2ccc3c(c2)OCO3)c2ccccc2[nH]c1=O
→ i | ? | -0.4% | 7.5e-09 | i
COC(=O)[C@@]1(Cc2ccc(OC)cc2)[C@H]2c3cc(C(=O)N4CCCC4)n(C[C@H](O)CO)c3C[C@H]2CN1C(=O)c1ccccc1
→ / | 3% | 0.2% | / | /
CCc1nnc(NC(=O)CCC(=O)N2CCN(Cc3ccccc3)CC2)s1
→ i | 24% | -0.1% | 4.4e-09 | i
Cc1cc(=O)[nH]c(SCC(=O)c2ccccc2)c1C#N
→ i | / | / | 2.9e-08 | i
CS(=O)(=O)N(CC(=O)NCc1ccco1)Cc1ccc(Cl)cc1
→ i | 6% | 0.2% | 2.6e-08 | i
CCNc1nc(N)nc(Oc2ccc(C(=O)OC)cc2)n1
→ i | 14% | -2.4% | 2.9e-08 | i
O=C(CCn1[nH]c(=O)c2ccccc2c1=O)OC1CCCCC1
→ i | 8% | -0.7% | 1.8e-08 | i
c1cnc(N2CCN(c3nc4ccccc4n4cnnc34)CC2)nc1
→ i | / | -1.1% | 6.2e-09 | i
COc1cccc(NC(=O)N(Cc2ccco2)C(C)c2cccs2)c1 (stereo not drawn)
→ i | ? | -0.5% | 1.4e-09 | i
O=C(O)C/C(=C\c1ccccc1)C(=O)O
→ i | -4%[11.4 µM] | -1.5%[11.5 µM] | 5.7e-09 | i
Cc1nn(-c2cc(N3CCCCC3)ccc2N)c(=O)c2ccccc12
→ i | 7% | -0.6% | 4.6e-08 | i
O=C(O)c1ccc(Cn2cc(Cl)cn2)cc1
→ i | 5% | 0.9% | 1e-09 | i
CC(=O)Nc1cccc(NC(=O)CSc2nnnn2Cc2ccccc2)c1
→ i | 20% | 0.0% | 1e-09 | i
CCS(=O)(=O)n1nc(-c2ccc(C)cc2)nc1N
→ i | -1% | 0.0% | 1e-09 | i
CN(C)CCNC(=O)c1ccc(CS(=O)(=O)c2ccc(Br)cc2)o1
→ / | 13% | 0.6% | / | /
OCCNCCO
→ / | 4% | 1.4% | / | /
CCOC(=O)c1nn(-c2ccc3c(c2)CCN3C(C)=O)cc1O
→ i | 5% | 1.2% | 1.5e-08 | i
Cn1c(=O)c(=O)n(C)c2cc(S(=O)(=O)N3CCC(N4CCCCC4)CC3)ccc21
→ i | -6% | 2.4% | 1e-09 | i
COc1ccc2[nH]cc(CCNc3nc(-c4ccoc4)nc4ccccc34)c2c1
→ i | / | -2.3% | 4.4e-09 | i
O=C(NCCO)c1c(O)c2cccc3c2n(c1=O)CC3
→ i | 1%[11.4 µM] | -1.8% | 1.8e-08 | i
COCCn1cc(C(=O)N2CCCC(C)C2)c2c3ccccc3n(C)c2c1=O (stereo not drawn)
→ i | / | 0.9% | 1e-09 | i
COc1cc(C(=S)N(C)C)ccc1O
→ i | 0% | -2.1% | 3.4e-08 | i
Cc1cc(C)c2cc(C(c3nnnn3C3CCCC3)N3CCOCC3)c(=O)[nH]c2c1 (stereo not drawn)
→ i | 6% | -0.6% | 7.4e-09 | i
O=c1c2ccccc2ncn1Cc1nc2ccccc2s1
→ i | 6% | -0.1% | 4.6e-08 | i
CC(C)(O)C#CC#CCN1CCOCC1
→ i | 3% | -2.5% | 2.6e-08 | i
O=C(c1ccc2c(c1)OCO2)N1CCc2ccccc2C1
→ i | 18% | 0.1% | 2.1e-08 | i
COCCCn1c(SCC(=O)N2CCCC(C)C2)nnc1-c1ccco1 (stereo not drawn)
→ i | ? | -1.8% | 4.8e-08 | i
O=C(Cn1nc(Cc2cccnc2)c2ccccc2c1=O)NCCCN1CCCC1=O
→ / | -2% | 1.4% | / | /
CC(C)C(=O)N(c1ccc2oc(=O)sc2c1)S(=O)(=O)c1cccs1
→ i | -22% | 0.0% | 4.2e-08 | i
CCOC(=O)N1CCN(c2nnnn2-c2ccccc2)CC1
→ i | -4% | -0.2% | 1e-09 | i
N#Cc1cnn(Cc2ccc(Cl)cc2)c1N
→ i | -4% | 0.3% | 1e-09 | i

Some of the entries so far, tab-delimited.
Molecule	A488 autofl	TSHR agonist	AID923	A647 autofl	Resorufin fluor
CC(=O)Nc1cccc(NC(=O)CSc2nnnn2Cc2ccccc2)c1	i	20%	0.0%	1e-09	i
CCS(=O)(=O)n1nc(-c2ccc(C)cc2)nc1N	i	-1%	0.0%	1e-09	i
CN(C)CCNC(=O)c1ccc(CS(=O)(=O)c2ccc(Br)cc2)o1	/	13%	0.6%	/	/

New compounds follow
Results follow in this order: A488 autofl | TSHR agonist | AID923 | A647 autofl | Resorufin fluor
Fc1cccc(Cl)c1CSc1nnc(COc2cccc3cccnc23)o1
→ i | ? | 0.6% | 2.7e-08 | i
Cc1cc(=O)[nH]c(/N=C(\N)Nc2ccc(Cl)cc2)n1
→ i | -1%[11.4 µM] | 0.2%[11.5 µM] | 1e-09 | i
O=C(Nc1ccccc1N1CCN(C(=O)c2ccc(Cl)cc2)CC1)c1cccnc1
→ i | / | -1.4% | 3.5e-08 | i
CN(C)S(=O)(=O)c1ccc2c(c1)c(=O)c(C(=O)N1CCOCC1)cn2C
→ / | 2% | 1.8% | / | /
CCOCCCNC(=O)C(NC(=O)CC1NC(=O)NC1=O)c1ccc(Cl)cc1 (stereo not drawn)
→ i | 2% | -1.8% | 1.6e-08 | i
CC(=O)OCC(=O)NCc1ccc2c(c1)OCO2
→ i | 0% | -0.5% | 4e-08 | i
COC(=O)C1=C(C)NC2=C(C(=O)CCC2)C1c1cccs1 (stereo not drawn)
→ i | 9% | 2.4% | 7.8e-08 | i
CC(=O)c1ccc(N2CCN(C(=O)c3ccc4c(=O)n(-c5ccccc5)c(=O)[nH]c4c3)CC2)cc1
→ i | 4% | 0.9% | 1e-09 | i
COc1cccc(N2CCN(C3CC(=O)N(c4ccc(Cl)c(Cl)c4)C3=O)CC2)c1 (stereo not drawn)
→ i | 0% | 1.9% | 5.2e-09 | i
Cc1ccc(NC(=O)N2CCCC2C(=O)NCCC2=CCCCC2)cc1 (stereo not drawn)
→ i | 1% | 0.9% | 2.6e-09 | i
COc1ccccc1N1CCN(C/C(O)=C(\C#N)c2nc(-c3ccccc3)cs2)CC1
→ i | ? | 2.8% | 1e-09 | i
COC(=O)N1CCC[C@@]2(CCN(Cc3nccs3)C2)C1
→ i | 2% | 1.9% | 2.9e-09 | i
COc1cccc(C(=O)N(Cc2cc3cc(C)ccc3[nH]c2=O)CC2CCCO2)c1 (stereo not drawn)
→ i | ? | -1.7% | 3.6e-08 | i
CC(=O)N1CCN(c2ccc(NC(=O)COc3ccc(Cl)cc3Cl)cc2)CC1
→ i | -6% | 0.5% | 1.8e-09 | i
Cc1c(C)[n+](=O)c2c(n1[O-])CCC2
→ i | / | / | 1e-09 | i
Cc1ccc(S(=O)(=O)N2CCN(C(=O)N3CCOCC3)C2c2ccc(N(C)C)cc2)cc1 (stereo not drawn)
→ i | 8% | 0.0% | 1e-09 | i
Cc1cc(NC(=O)c2ccccc2F)n(-c2nc3ccccc3[nH]2)n1
→ i | 24% | -0.3% | 1.5e-08 | i
Cc1ccc(C(=O)NC(Cc2c[nH]c3ccccc23)C(=O)O)o1 (stereo not drawn)
→ / | 2% | 2.4% | / | /
CCOC(=O)c1ccc(N2C(=O)CC(Sc3nnc(C)s3)C2=O)cc1 (stereo not drawn)
→ i | / | / | 7.1e-08 | i
COc1ccccc1-c1noc(-c2cccnc2)n1
→ i | 1%[11.4 µM] | 1.5% | 1.1e-09 | i
CC1(C(=O)N(CC(=O)NC2CCCC2)Cc2ccco2)CC(=O)N=C2C=CC=CN21 (stereo not drawn)
→ i | 0% | 1.2% | 1.3e-09 | i
